Cruzain Triton = qHTS Assay for Promiscuous and Specific Inhibitors of Cruzain (with detergent); purified cruzain, Z-FR-AMC fluorescence, 0.01% Triton; Potency, µM, inactives show max response, negative = inhibition, hits mostly inhibitors; 0.43% of 200,000 active; AID 1478, 2009; active = well fitted curve in the direction sought with a large enough effect; inconclusive = small, poorly fitted or top-dose-only effect, or another doubt; inactive = no such curve, though single readings can be large; an effect the other way counts as inactive or inconclusive;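 note: plate controls were neutral wells for no effect and buffer without enzyme for full effect; nearly all actives have a fitted effect of over 40% in size; top concentration of the series not given in the record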
Target sequence (P25779 123-467 limits assumed): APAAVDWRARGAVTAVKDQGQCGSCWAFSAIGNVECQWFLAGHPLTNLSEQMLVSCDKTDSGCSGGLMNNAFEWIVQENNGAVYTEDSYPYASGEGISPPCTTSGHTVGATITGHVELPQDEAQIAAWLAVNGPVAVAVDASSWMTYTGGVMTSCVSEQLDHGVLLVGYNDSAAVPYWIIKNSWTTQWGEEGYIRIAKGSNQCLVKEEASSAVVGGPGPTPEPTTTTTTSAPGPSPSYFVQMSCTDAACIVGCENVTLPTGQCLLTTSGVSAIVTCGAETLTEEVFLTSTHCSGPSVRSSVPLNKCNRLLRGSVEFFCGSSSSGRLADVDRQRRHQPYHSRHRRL
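Sodium acetate buffer (100 mM, pH 5.5) containing 5 mM DTT and 0.01% Triton X-100 hosted 1.5 nM cruzain and test compound for 15 min at room temperature. Cleavage of 2 uM Z-FR-AMC was then tracked by fluorescence.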
NS1 function inh = qHTS Assay for Inhibitors of Influenza NS1 Protein Function; S. cerevisiae slowed by influenza A NS1, growth recovery by OD600; Potency, µM (top dose mostly 46.1 µM), for inactives: at the top dose activity, positive = more growth; 0.4% of 270,000 active; note: actives are rising curves; nearly all actives have a fitted effect of over 50% in size
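In this qHTS, NS1 from influenza A is expressed in budding yeast, where it slows growth. Cells are switched from glucose to 2% galactose medium (pH 6.0, -URA), treated with compound, and growth recovery is read at OD600.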
Marburg entry inh = qHTS for inhibitors of binding or entry into cells for Marburg Virus | AID 540276, 2011 | Potency, µM (titrated, usually from 37.8 µM), for the others: at the top dose activity change, negative = inhibition, usual class: inhibitors | Marburg virus pseudotyped entry inhibition, cell reporter; control for the full effect not named in the record; about a third of the inactives were read at about 46 µM | 1.8% of 300,000 active; active = well fitted inhibition curve with a large enough effect; inconclusive = small, poorly fitted or top-dose-only effect, or effect the other way; inactive = flat fitted curve, though single readings scatter; tested in HEK293 cells; about a fifth of its hits are not listed in these tables; note: % is set by controls: 0 for no effect and ±100 for the full control effect; luciferase read-out
SARS PLpro yeast = qHTS of Yeast-based Assay for SARS-CoV PLP; S. cerevisiae expressing SARS-CoV PLpro, growth rescue; control for the full effect not named in the record; AID 485353, 2010; 0.19% of 330,000 active; Potency, µM (highest dose often 32.9 µM), for inactives: top-dose activity, positive = growth rescue; note: 0% is about no effect; nearly all actives have a fitted effect of over 55% in size; growth read by luminescence after 48 h
RE007 growth inh = qHTS Assay for Inhibitors of the HIV-1 protein Vpr; S. pombe RE007 Vpr strain, BacTiter-Glo ATP luminescence, 24 h; control for the full effect not named in the record; Potency, µM (top dose mostly 92.2 µM), for the others: at the top dose activity change, negative = less growth; 0.21% of 360,000 active; AID 651644, 2012; active = well fitted falling curve with a large enough effect; inconclusive = small, poorly fitted or top-dose-only effect; inactive = no such curve, though single readings can be large or run the other way;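 note: % is set by controls: 0 for no effect and ±100 for the full control effect; nearly all actives have a fitted effect of over 50% in size; the assay follows cell death caused by Vpr and the record does not say whether a fall means rescue or toxicity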
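Fission yeast strain RE007, carrying one chromosomally integrated HIV-1 vpr copy, was seeded at OD 0.01 in PMG+AL medium with 23 nL pinned compound. After 24 h at 30 °C and 99% humidity, viability was read by BacTiter-Glo luminescence.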
LASV entry inh = qHTS for Inhibitors of binding or entry into cells for Lassa Virus; 1.2% of 300,000 active; Lassa virus pseudotype entry inhibition, cell reporter; control for the full effect not named in the record; Potency, µM (series often up to 37.9 µM), without a hit: top-dose activity change, negative = inhibition, usual class: inhibitors; active means well fitted inhibition curve with a large enough effect; inconclusive means small, poorly fitted or top-dose-only effect, or effect the other way; inactive means flat fitted curve, though single readings scatter; tested in HEK293 cells; note: % is set by controls: 0 for no effect and ±100 for the full control effect; nearly all actives have a fitted effect of over 50% in size; luciferase read-out
2A StopGo = High Throughput Screening for Foot and Mouth Disease Virus Antivirals; 1.2% of 410,000 active; Potency, µM (series often up to 57.9 µM), for inactives: at the top dose signal change, negative = less light; human cells with a luciferase reporter of 2A StopGo recoding; control for the full effect not named in the record; active = well fitted falling curve with a large enough effect; inconclusive = small, poorly fitted or top-dose-only effect; inactive = no such curve, though single readings can be large or run the other way; tested in HEK293T cells; note: % is set by controls: 0 for no effect and ±100 for the full control effect; nearly all actives have a fitted effect of over 45% in size; luciferase light after 4 h
Cruzain inh noDet = qHTS Assay for Promiscuous and Specific Inhibitors of Cruzain (without detergent) | Cruzipain (Trypanosoma cruzi), P25779 | purified cruzain, Z-FR-AMC fluorescence, no detergent | Potency, µM, inactives show max response, negative = inhibition, actives largely listed as inhibitors | 2.3% of 200,000 active; active = well fitted curve in the direction sought with a large enough effect; inconclusive = small, poorly fitted or top-dose-only effect, or another doubt; inactive = no such curve, though single readings can be large; an effect the other way counts as inactive or inconclusive;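 note: plate controls were enzyme without inhibitor for no effect and buffer without enzyme for full effect; nearly all actives have a fitted effect of over 40% in size; top concentration of the series not given in the record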
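Detergent-free condition (0.00005% Triton X-100) in acetate buffer pH 5.5 with DTT. 1.5 nM enzyme and compound were pre-mixed 15 min, then 2 uM Z-FR-AMC substrate added; reaction progress from fluorescence change between first and third reads (60 s).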
Starred values were filed as active, the others as inactive; ? = inconclusive; nt = no result given; & = joins results of further samples; [ ] = remark or other dose. Unless noted, calls come from the whole dose curve; as a rule, active means well fitted rising curve with a large enough effect; inconclusive means small, poorly fitted or top-dose-only effect; inactive means no such curve, though single readings can be large or run the other way. Potency is the fitted concentration of half-maximal effect.

SMILES	Cruzain Triton	NS1 function inh	Marburg entry inh	SARS PLpro yeast	RE007 growth inh	LASV entry inh	2A StopGo	Cruzain inh noDet
CCn1cc(C(=O)N[C@@H](CCSC)C(=O)NCCN2CCOCC2)c(=O)c2cc3c(cc21)OCO3	nt	-8%	nt	4%	13%	nt	13%	nt
CC(C)(C)NC(=O)C(c1ccco1)N(Cc1ccc2c(c1)OCO2)C(=O)c1snc(C(N)=O)c1N (configuration not stated)	nt	-8%	?	1%	-11%	?	19%	nt
O=C1NC(=O)C(=Cc2cccs2)C(=O)N1	nt	nt	1%[46.1 µM]	nt	9%	-1%[46.1 µM]	-22%	nt
COc1ccc(NC(=O)c2cc([N+](=O)[O-])nn2Cc2ccccc2)c(C)c1	-3.5%	0%	?	2%	9%	-4%	-11%	-1%
CC(=O)c1ccc(C(=O)N(Cc2cccnc2)c2nc3c(Cl)cccc3s2)cc1	-3.1%	nt	nt	nt	nt	?	-11%	?
COc1cccc(C(=O)OCC(=O)Nc2nnc(-c3ccccc3)o2)c1	nt	nt	-2%	-2%	-1%	8%[46.1 µM]	25%	nt
CCCCc1ccc(NC(=O)CSc2nc(=O)n3cc(C)ccc3n2)cc1	nt	nt	-18%[46.1 µM]	-3%	4%	16%	-29%	nt
O=C1NC(=Nc2ccccc2)S/C1=C\c1cccnc1	nt	7%	nt	1%	-16%	nt	31%[activator]	nt
CCOCCCN=Cc1c(O)n(Cc2ccccc2)c(=O)[nH]c1=O	1.0%	5%	17%	2%	-4%	-10%	-19%	2%
CC(C)(C)c1n[nH]c2c1CCCC2	-1.4%	-2%	22%	6%	-7%	?	-15%	-3%
Cc1cc(C)n2cc(CSc3ccc(Cl)cc3)nc2n1	nt	3%	nt	-2%	9%	nt	0%	nt
CCCn1nc(C(=O)NC2CCCCCC2)c2ccccc2c1=O	nt	nt	-28%	0%	1%	-1%	-9%	nt
CCn1c(=O)c2c(nc(SCC(=O)N3CCC(C)CC3)n2C)n(C)c1=O	nt	5%	1%[46.1 µM]	0%	-1%	-24%	-29%	nt
Cc1c(Cl)cccc1NC(=O)CN1C(=O)CSc2ncccc21	-3.6%	5%	4%	3%	nt	nt	nt	-10%
COCCSc1ccccc1C(=O)N1CCCC1	3.7%	1%	27%	9%	4%	6%	nt	-18%
C=CCN1C(=O)CS/C1=N\S(=O)(=O)c1ccc(Cl)cc1	-3.0%	10%	4%	20%	1%	10%	0%	-8%
CN(Cc1nc2ccccc2c(=O)[nH]1)Cc1cc(=O)oc2ccc3ccccc3c12	-2.7%	-2%	8%	6%	13%	1%	-10%	24%
CCCCn1nnnc1SCC(=O)Nc1ccc2c(c1)OCCO2	8.6%	-8%	12%[46.1 µM]	-8%	7%	-4%	37%[activator]	-2%
c1ccc(CNCCN2CCNCC2)nc1	1.4%&3.0%	?	8%	1%	0%	-3%	3%	13%&11%
O=c1[nH]c(=S)n(Cc2ccco2)c(O)c1C=NCc1cccs1	-17%	3%	1%	1%	7%	19%	-9%	?
CCN(C(=O)c1ccccc1Cl)c1ccccc1	0.9%	4%	-9%	-3%	0%	28%[14.3 µM]	-5%	-4%
O=C(NC1CCN(C(=S)NCc2ccco2)CC1)C1CCCCC1	-0.6%	1%	-21%	-1%	13%	14%	nt	5%
Cc1ccc2c(C)c(C(=O)NCCc3ccco3)oc2c1C	nt	-18%	9%[46.1 µM]	-7%	-6%	-7%[46.1 µM]	23%	nt
NS(=O)(=O)c1ccc(NC(=S)N2CCCC2)cc1	nt	-1%	nt	-2%	15%	nt	-25%	nt
CC1(C)CC(=O)C2=C(C1)Nc1cc3c(cc1C2c1ccc(F)cc1)OCO3 (configuration not stated)	-3.7%	3%	?	-11%	4%	?	-15%	-3%
CN(C)C1=NCCN1CCc1cccc(F)c1	nt	-9%	nt	-3%	-3%	nt	-8%	nt
O=C(CCn1cccn1)NCc1ccc(Cl)cc1	-1.7%	nt	nt	nt	nt	22%[46.1 µM]	-23%	-12%
Cc1ccc(CNC(=O)CCC2CCCN(C(=O)CCC(F)(F)F)C2)o1 (configuration not stated)	nt	4%	10%[46.1 µM]	0%	7%	-27%[46.1 µM]	2%	nt
O=C(COC(=O)/C=C/c1ccco1)NCc1ccccc1	nt	nt	-2%[46.1 µM]	-6%	16%	9%	7%	nt
O=C(CN(C(=O)Cn1nnc(-c2ccc(F)cc2)n1)c1ccc(F)cc1)NC1CCCC1	nt	4%	1%	1%	3%	-2%	-15%	nt
Cc1ccc(S(=O)(=O)NC(=O)NCc2ccccc2)cc1	5.9%	-14%	3%	8%	19%	3%	25%	11%
COc1ccc(-n2c(O)c(/C=N/n3cnnc3)c3ccccc3c2=O)cc1	-4.6%	14%	12%	-8%	-2%	5%	-14%	0%
CN(C(=O)c1ccc2ccccc2c1)c1ccccn1	nt	6%	0%[46.1 µM]	-1%	-8%	nt	48%[activator]	nt
O=C(Nc1ccccc1O)c1cc(S(=O)(=O)N2CCOCC2)ccc1Cl	7.1%	-7%	-2%	-1%	5%	-12%	0%	2%
O=C(NCN1CCN(c2ccccc2F)CC1)c1cccnc1	4.5%	3%	1%	4%	-1%	-25%	-17%	3%
CCN(CC)CC(=O)Nc1sc2c(c1C(=O)c1ccccc1C)CCC2	nt	-6%	-26%[46.1 µM]	1%	-6%	?	0%	nt
CCN1CCN(Cc2ccc(NC(=O)c3ccc(C)c(NC(=O)c4nccn4C)c3)cc2C(F)(F)F)CC1	nt	-2%	nt	1%	-15%	nt	0%	nt
O=C(NC1=NCCS1)c1cc(-c2ccccc2)nn1-c1ccccc1	-2.7%	-9%	-2%	-6%	1%	-7%	2%	-12%
Cc1cccc(CN2CCN(Cc3ccco3)CC2)c1	nt	2%	nt	-1%	-18%	nt	9%	nt
CC1CCN(C(=O)COC(=O)CSc2ccc(C(N)=O)cc2[N+](=O)[O-])CC1	nt	nt	2%	14%	-14%	12%	2%	nt
Cc1ccc(CN2C(=O)CCC2C(=O)NC2CC2)cc1 (configuration not stated)	6.6%	3%	9%	14%	-19%	-1%	-17%	-2%
Cc1ccc(/C(N)=N/OC(=O)CN(C)S(=O)(=O)c2ccc(C)cc2)cc1	nt	-35%	2%[46.1 µM]	-5%	-8%	?	27%	nt
CCOc1ccc(Cn2cc(F)c(=O)[nH]c2=O)cc1	nt	1%	nt	1%	24%	nt	7%	nt
CCOC(=O)c1c(C)[nH]c(C(=O)COC(=O)C2CC(=O)N(Cc3ccccc3)C2)c1C (configuration not stated)	-3.6%	-58%	-4%	0%	-9%	-3%	-14%	?
Cc1ccc(C(=O)Nc2ccc(Nc3ccccc3)cc2)cc1C	nt	nt	10%[46.1 µM]	nt	?	-9%[46.1 µM]	24%	nt

Profiles, quoted from the list.
CC1CCN(C(=O)COC(=O)CSc2ccc(C(N)=O)cc2[N+](=O)[O-])CC1 is entered as Cruzain Triton: nt; NS1 function inh: nt; Marburg entry inh: 2%; SARS PLpro yeast: 14%; RE007 growth inh: -14%; LASV entry inh: 12%; 2A StopGo: 2%; Cruzain inh noDet: nt
Cc1ccc(S(=O)(=O)NC(=O)NCc2ccccc2)cc1 is entered as Cruzain Triton: 5.9%; NS1 function inh: -14%; Marburg entry inh: 3%; SARS PLpro yeast: 8%; RE007 growth inh: 19%; LASV entry inh: 3%; 2A StopGo: 25%; Cruzain inh noDet: 11%

(next part)
SMILES	Cruzain Triton	NS1 function inh	Marburg entry inh	SARS PLpro yeast	RE007 growth inh	LASV entry inh	2A StopGo	Cruzain inh noDet
Cc1ccc(C(=O)OCc2cc3ccccc3[nH]c2=O)cc1	-3.0%	?	12%	-2%	-5%	-13%	nt	2%
Nc1nccc(NCCSCc2ccccc2)n1	nt	nt	?	nt	-9%	-3%[46.1 µM]	-25%	nt
O=C1Nc2ccccc2C1=Nc1ccc(S(=O)(=O)Nc2nccs2)cc1	3.1%	-8%&-1%	19%	3%	-8%	6%	7%	6%
O=C(NNc1ncccc1-n1cccc1)c1ccc(Cl)cc1	nt	2%	-2%	0%	0%	14%	-7%	nt
COc1ccccc1-c1nnc(SCc2nc3ccccc3s2)n1C	1.0%	3%	-1%	-7%	-4%	-8%	3%	-13%

A draw from above in order of heavy-atom count, smallest number first:
SMILES	Cruzain Triton	NS1 function inh	Marburg entry inh	SARS PLpro yeast	RE007 growth inh	LASV entry inh	2A StopGo	Cruzain inh noDet
Nc1nccc(NCCSCc2ccccc2)n1	nt	nt	?	nt	-9%	-3%[46.1 µM]	-25%	nt
CCOc1ccc(Cn2cc(F)c(=O)[nH]c2=O)cc1	nt	1%	nt	1%	24%	nt	7%	nt
Cc1cccc(CN2CCN(Cc3ccco3)CC2)c1	nt	2%	nt	-1%	-18%	nt	9%	nt
Cc1ccc(C(=O)OCc2cc3ccccc3[nH]c2=O)cc1	-3.0%	?	12%	-2%	-5%	-13%	nt	2%
O=C(NCN1CCN(c2ccccc2F)CC1)c1cccnc1	4.5%	3%	1%	4%	-1%	-25%	-17%	3%
Cc1ccc(C(=O)Nc2ccc(Nc3ccccc3)cc2)cc1C	nt	nt	10%[46.1 µM]	nt	?	-9%[46.1 µM]	24%	nt
COc1ccccc1-c1nnc(SCc2nc3ccccc3s2)n1C	1.0%	3%	-1%	-7%	-4%	-8%	3%	-13%
CCN(CC)CC(=O)Nc1sc2c(c1C(=O)c1ccccc1C)CCC2	nt	-6%	-26%[46.1 µM]	1%	-6%	?	0%	nt
CC1CCN(C(=O)COC(=O)CSc2ccc(C(N)=O)cc2[N+](=O)[O-])CC1	nt	nt	2%	14%	-14%	12%	2%	nt
CCOC(=O)c1c(C)[nH]c(C(=O)COC(=O)C2CC(=O)N(Cc3ccccc3)C2)c1C (configuration not stated)	-3.6%	-58%	-4%	0%	-9%	-3%	-14%	?
CCN1CCN(Cc2ccc(NC(=O)c3ccc(C)c(NC(=O)c4nccn4C)c3)cc2C(F)(F)F)CC1	nt	-2%	nt	1%	-15%	nt	0%	nt

Compound activity (PubChem BioAssay)
